# Compound activity deposited in PubChem BioAssay by National Center for Advancing Translational Sciences (NCATS).
# gsp antagonist: qHTS for Antagonists of gsp, the Etiologic Mutation Responsible for Fibrous Dysplasia/McCune-Albright Syndrome: qHTS; gsp-mutant cells, cAMP HTRF, 30 min; control for the full effect not named in the record; Potency, µM (series often up to 76.9 µM), without a hit: at the highest dose activity change, negative = inhibition, actives largely listed as inhibitors; 340,000 compounds, 0.4% hits; active = falling curve of any shape with a large fitted effect; inconclusive = falling curve, mostly with a smaller effect; inactive = flat or rising curve; cell line not stated here;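 note: intracellular cAMP measured with PDE inhibitor Ro 20-1724 present during compound exposure; potency is the fitted concentration of half-maximal effect; % is set by controls: 0 for no effect and ±100 for the full control effect; nearly all actives have a fitted effect of over 65% in size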
#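 HTRF cAMP read-out (cAMP-d2 plus anti-cAMP antibody-K in lysis buffer, 30 min RT). Before lysis, cells are exposed to compounds with […] for 30 min at 37C in DPBS containing Ca/Mg, BSA and Tween 20.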
# gsp ag: qHTS for Agonist of gsp, the Etiologic Mutation Responsible for Fibrous Dysplasia/McCune-Albright Syndrome: qHTS. 340,000 compounds, 0.13% hits. AID 624287, 2012. Potency, µM (series often up to 76.9 µM), for inactives: at the highest dose activation (cAMP increase), actives largely listed as activators. gsp mutant cells, cAMP HTRF, 30 min; control for the full effect not named in the record; active = well fitted activation curve with a large enough effect; inconclusive = small, poorly fitted or top-dose-only effect, or another doubt; inactive = no such curve, though single readings can be large or run the other way; cell line not stated here;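 note: phosphodiesterase inhibitor Ro 20-1724 added with compounds to block cAMP breakdown; potency is the fitted concentration of half-maximal effect; nearly all actives have a fitted effect of over 60% in size; about a fifth of the inactives were tested at one dose only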
#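 Cells in DMEM/10% FBS with G418 were pretreated with compounds in DMSO plus […] (300 uM stock) for 30 min at 37C. cAMP was measured by HTRF (cAMP-d2 plus anti-cAMP antibody-K) after 30 min at room temperature.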
# D2 potentiator: Beta-Arrestin HTS for Positive Allosteric Modulators of the Human D2 Dopamine Receptor: Potentiators; D(2) dopamine receptor (Homo sapiens), P14416; DiscoveRx D2 beta-arrestin cells, luminescence, 90 min; 100% = 57 uM dopamine signal; potentiation, % (no concentration beside the values); 360,000 compounds, 0.23% hits; AID 624464, 2012; active = potentiation of 50% or more; inconclusive = 30% to 50%; inactive = 30% or less;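 note: compound concentration not given in the record; tested on top of an EC20 dose of dopamine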
#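 PathHunter D2 cells, attached overnight at 37 deg C, received compound in DMSO plus dopamine at EC20 (50 nM final) for 90 min at 37 deg C. Beta-arrestin recruitment was read as luminescence after 1 h with detection reagent at ambient temperature.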
# D2 ag: Beta-Arrestin HTS for Positive Allosteric Modulators of the Human D2 Dopamine Receptor: Agonists; D(2) dopamine receptor (Homo sapiens), P14416; DiscoveRx PathHunter D2 beta-arrestin, luminescence, 90 min; 100% = 57 uM dopamine signal; activation, % (no concentration beside the values); 360,000 compounds, 0.084% hits; in the data active = activation above about 40%; inconclusive = about 15% to 40%; inactive = below about 15%; note: compound concentration not given in the record; the text of the record calls up to 30% inactive
#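 Agonist mode: compounds alone added to overnight-plated D2 PathHunter cells for 90 min at 37 C, with 57 uM final dopamine (EC100) defining full response. Beta-arrestin recruitment detected by chemiluminescent reagent, read after 1 h at ambient temperature.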
# Six1-Eya2 blk: qHTS Assay for Inhibitors of the Six1/Eya2 Interaction; 360,000 compounds, 0.56% hits; activity change, % (concentration not given with the values); AlphaScreen GST-Six1/His-Eya2 binding, biochemical; active compounds read low; control for the full effect not named in the record; in the data active = activity change below about -65%; inconclusive = about -30% to -65%; inactive = above about -30%; note: % is set by controls: 0 for no effect and ±100 for the full control effect
# Target sequence (O00167 whole entry, looked up): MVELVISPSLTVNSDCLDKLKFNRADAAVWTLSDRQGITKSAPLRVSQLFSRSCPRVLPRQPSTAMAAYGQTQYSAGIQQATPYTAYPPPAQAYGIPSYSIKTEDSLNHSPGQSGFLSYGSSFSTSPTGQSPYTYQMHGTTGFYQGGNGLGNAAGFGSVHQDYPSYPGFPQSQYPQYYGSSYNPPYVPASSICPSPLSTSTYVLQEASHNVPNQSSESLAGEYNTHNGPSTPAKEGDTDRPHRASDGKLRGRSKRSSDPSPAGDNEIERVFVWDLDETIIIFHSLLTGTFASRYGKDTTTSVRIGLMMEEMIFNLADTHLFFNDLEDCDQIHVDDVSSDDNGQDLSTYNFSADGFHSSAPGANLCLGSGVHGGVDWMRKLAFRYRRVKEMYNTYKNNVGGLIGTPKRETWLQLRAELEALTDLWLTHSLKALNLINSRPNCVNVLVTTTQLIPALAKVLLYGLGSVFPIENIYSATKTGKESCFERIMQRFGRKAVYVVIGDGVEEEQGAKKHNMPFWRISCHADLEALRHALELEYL
# Target sequence (Q15475 whole entry, looked up): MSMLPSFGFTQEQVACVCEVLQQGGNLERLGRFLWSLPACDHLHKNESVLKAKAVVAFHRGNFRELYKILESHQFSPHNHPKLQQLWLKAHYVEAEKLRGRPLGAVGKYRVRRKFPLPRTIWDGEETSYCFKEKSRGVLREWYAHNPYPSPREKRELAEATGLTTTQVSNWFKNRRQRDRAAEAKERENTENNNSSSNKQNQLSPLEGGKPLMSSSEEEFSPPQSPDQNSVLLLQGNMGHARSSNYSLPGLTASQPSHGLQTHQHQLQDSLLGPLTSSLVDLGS
#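 Compounds are tested against tagged Six1 and Eya2 proteins bridged by glutathione donor and nickel acceptor beads; after a one-hour incubation at 37 °C without light, AlphaScreen emission is recorded.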
# CtBP-E1A blk: qHTS Assay for Inhibitors of the CtBP/E1A Interaction; 340,000 compounds, 0.49% hits; AID 651724, 2012; activity change, % (no concentration beside the values); CtBP / adenovirus E1A interaction (AlphaScreen); AlphaScreen GST-E1A/His-CtBP binding, 1536-well; active compounds read low; control for the full effect not named in the record; in the data active means activity change below about -65%; inconclusive means about -30% to -65%; inactive means above about -30%; note: % is set by controls: 0 for no effect and ±100 for the full control effect
#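 GST-E1A and His-tagged CtBP (125 nM each as 5X stock) were preincubated with pin-transferred compound for 2 h at 37 °C in the dark, then glutathione donor and nickel acceptor beads were added for 1 h before AlphaScreen reading.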
# * hit, by the source's call; ? = inconclusive; . = not tested or not shown; [ ] = dose if it differs, or a comment.
gsp antagonist	D2 ag	CtBP-E1A blk	Six1-Eya2 blk	D2 potentiator	gsp ag	Structure
12.7%	1.4	2.3	3.8	-8.9	-47.4%[inhibitor]	O=C(NCc1cccs1)c1ccc(Cl)s1
-2.7%	-2.9	1.7	-5.1	-8.7	-36.9%[inhibitor]	CCN(C(=O)COC(=O)c1oc2ccc(OC)cc2c1C)C1CCCCC1
0.3%	-1.5	-4.8	4.6	-3.0	22.5%	O=C(C1c2ccccc2C(=O)N2CCc3ccccc3C12)N1CCN(Cc2ccccc2)CC1 (stereo not drawn)
-6.1%	1.3	2.8	-1.2	-12.6	-10.6%	COc1cccc(C(=O)n2c(SC)nc3cc4c(cc32)OCCO4)c1
5.9%	-5.4	-1.5	6.9	-34.8	7.5%[15.4 µM]	Cc1ccc(C(=O)OCc2nc3ccsc3c(=O)[nH]2)o1
-9.6%	1.3	1.1	1.8	-9.1	0.0%	COc1ccccc1N1CCN(C(=O)CN(Cc2ccccc2)S(C)(=O)=O)CC1
3.7%	-4.0	2.7	-6.3	3.8	-1.7%[15.4 µM]	COc1cccc(OC)c1C(=O)NC(=S)Nc1ccc2c(c1)OCCO2
-20.3%	-1.3	12.2	-3.6	-8.5	4.3%	N#CCCCSc1nnc(-c2ccc(Cl)cc2)n1-c1ccccc1
5.3%	-8.3	6.6	1.1	-6.6	-26.2%[15.4 µM]	O=C(NC(=S)NCc1nc2ccccc2[nH]1)c1ccccc1F
2.1%	2.3	-0.3	5.7	0.0	-0.3%	C=CCN=C(CC)C1=C(O)CCCC1=O
-7.3%	-0.8	-20.8	3.8	-6.3	-4.8%	CCOC(=O)c1ccc(S(=O)(=O)N2CCN(CCc3ccncc3)CC2)cc1
-0.4%	-1.7	-2.3	0.6	-10.0	-0.2%	O=C(Nc1ccc(-c2nc3cccnc3s2)cc1)c1ccc(Br)o1
?	3.8	.	13.8	-3.9	22.8%	CC(NC(=O)COC(=O)CNS(=O)(=O)/C=C/c1ccccc1)c1ccccc1 (stereo not drawn)
-19.8%	6.8	?	?	2.0	-27.2%	CCCCC(=O)NC(c1ccc(Cl)cc1)c1ccc2cccnc2c1O (stereo not drawn)
-4.9%	0.6	4.9	0.4	10.7	-45.7%[inhibitor]	C=CCn1c(CC(=O)OC)csc1=Nc1ccc(C(C)=O)cc1

gsp antagonist	D2 ag	CtBP-E1A blk	Six1-Eya2 blk	D2 potentiator	gsp ag	Structure
7.4%	-3.7	2.2	4.2	-21.4	-14.2%	CC(C)Oc1ccc(C(=O)NC2CCS(=O)(=O)C2)cc1 (stereo not drawn)
17.8%	-3.0	-0.1	8.7	-9.8	-46.5%[inhibitor]	CC(C)C(c1nnnn1Cc1ccc2c(c1)OCO2)N1CCN(C)CC1 (stereo not drawn)
2.3%	-5.4	-0.1	2.7	-13.1	15.3%	CCOC(=O)C(C)Sc1nnc(Cc2cc(=O)[nH]c(=O)[nH]2)n1-c1ccc(OCC)cc1 (stereo not drawn)
3.6%	-0.9	1.7	-12.4	-10.5	-0.2%	N#CC1=C(N)Oc2n[nH]c(-c3cccs3)c2C1c1ccoc1 (stereo not drawn)
-11.8%	7.2	1.9	-5.4	-2.4	2.5%	Cc1nc([N+](=O)[O-])c(C(=O)OCc2cccc(Br)c2)n1C
-1.6%	10.8	4.1	-0.1	-5.5	.	CC#CCOC(=O)c1c(C)nc2sc3c(c2c1N)CCC(O)C3 (stereo not drawn)
.	-5.7	-11.0	-11.1	-9.9	6.2%	O=c1[nH]c(C(F)(F)F)nc2c1nc1n2CCC1
11.5%	-2.8	0.5	-4.9	-6.3	-33.8%[inhibitor]	COC(=O)CCCC(=O)N(C)CC1CCCN(CCc2ccccc2C)C1 (stereo not drawn)
-2.1%	5.7	-9.2	0.1	-1.0	5.0%[15.4 µM]	COc1ccc(OC)c(-n2c(-c3ccc(O)cc3O)n[nH]c2=S)c1
7.4%	-6.4	-0.1	4.7	-3.1	7.9%	COc1ccc(C(=O)NCC(=O)N2CCCCC2)cc1OC
-27.8%	-2.5	-4.1	-7.1	-6.6	-1.8%	CC(=O)Nc1cccc(-c2csc(NCc3ccco3)n2)c1
0.4%	0.4	-0.3	-0.2	-1.7	-15.8%[15.4 µM]	CNC(=O)/C(C#N)=C/c1ccc(-c2nc3ccccc3s2)o1
5.9%	-0.1	-2.2	-2.6	-6.1	-3.3%[15.4 µM]	COc1ccc(CP(=O)(c2ccccc2)c2ccccc2)cc1
1.2%	3.4	3.6	-12.0	-10.1	26.0%[15.4 µM]	NS(=O)(=O)c1ccc(CNC(=S)NCc2ccc(F)cc2)cc1
1.6%	1.0	3.9	4.0	-1.8	6.8%[15.4 µM]	COCCN(C(=O)CCC(=O)Nc1cc(C)on1)C(C(=O)NC(C)(C)C)c1ccccc1Cl (stereo not drawn)

gsp antagonist	D2 ag	CtBP-E1A blk	Six1-Eya2 blk	D2 potentiator	gsp ag	Structure
-3.1%	-23.2	-6.7	-10.6	-15.5	0.5%[15.4 µM]	CSc1cccc(CN2CCN(Cc3ccc(F)c(F)c3)C(CCO)C2)c1 (stereo not drawn)
29.8%	-6.6	-3.0	-2.5	-12.8	?	Cc1nnc(SCCN2CCOCC2)c2nn(-c3ccccc3F)c(C)c12
-5.4%	-5.1	-8.9	0.0	-8.3	-29.1%	Brc1ccc(-c2ccc(/C=N/Nc3nncc(-c4ccccc4)n3)o2)cc1
-1.3%	-4.4	5.5	10.0	-0.2	-27.8%	Nn1c(SCC(=O)Nc2ccc3c(c2)OCO3)nnc1C1CCCCC1
-1.5%	-5.1	2.3	-0.6	-6.8	12.4%	CN1CCN(C(=O)c2cc3c(s2)-c2ccccc2S(=O)(=O)C3)CC1
9.7%	-2.4	-1.3	-2.6	13.9	-2.2%	CS(=O)(=O)c1ccc2nc(NC(=O)CCC(=O)c3cccs3)sc2c1
-0.1%	0.6	7.3	16.6	-2.2	2.9%	Fc1ccccc1N1CCN(CC2CCCCC2)CC1
-7.8%	-0.9	-1.3	-1.8	-4.8	-53.7%[inhibitor]	CCc1cc(C(=O)N2CCN(c3ccccn3)CC2)sc1C
-5.8%	-3.4	-0.2	0.2	5.2	?	CCc1noc(C)c1C(=O)OCC(=O)NC(=O)c1ccccc1OC
-8.9%	-4.2	-4.3	-8.6	-1.4	3.0%[15.4 µM]	COc1ccc(OC)c(/C=N\NC(=O)c2c(C)nc3cc(C)ccn23)c1
18.4%	3.8	-3.7	5.4	-3.5	?	COCCN1C(=O)C(=O)/C(=C(/O)c2ccc(OC(C)C)cc2)C1c1cccnc1 (stereo not drawn)
-36.4%	-2.2	2.8	-13.5	-7.6	1.0%	C=C(C)CSc1nc(N)c2c3c(sc2n1)CCC3
3.6%	0.8	-5.1	0.6	1.5	16.5%	O=[N+]([O-])c1ccc(Cl)cc1CNc1ccc(F)c(F)c1
7.6%	-3.4	-17.6	41.0	4.5	24.7%	O=C(O)Cc1sc(-c2ccc(C(=O)O)cc2)nc1-c1ccccc1
-3.0%	-2.0	-6.4	-2.5	-9.0	-46.7%[inhibitor]	CCOc1ccc(C2c3cc(OC)c(OC)cc3CC(=O)N2c2ccccc2)cc1 (stereo not drawn)

# Arranged by length of the SMILES (descending): part of the list above
gsp antagonist	D2 ag	CtBP-E1A blk	Six1-Eya2 blk	D2 potentiator	gsp ag	Structure
9.7%	-2.4	-1.3	-2.6	13.9	-2.2%	CS(=O)(=O)c1ccc2nc(NC(=O)CCC(=O)c3cccs3)sc2c1
7.6%	-3.4	-17.6	41.0	4.5	24.7%	O=C(O)Cc1sc(-c2ccc(C(=O)O)cc2)nc1-c1ccccc1
-1.3%	-4.4	5.5	10.0	-0.2	-27.8%	Nn1c(SCC(=O)Nc2ccc3c(c2)OCO3)nnc1C1CCCCC1
-5.8%	-3.4	-0.2	0.2	5.2	?	CCc1noc(C)c1C(=O)OCC(=O)NC(=O)c1ccccc1OC

# Going on with the list:
gsp antagonist	D2 ag	CtBP-E1A blk	Six1-Eya2 blk	D2 potentiator	gsp ag	Structure
6.3%	-4.7	4.1	-17.5	7.1	-11.7%	O=C(OCc1cccc(C(F)(F)F)c1)c1cc([N+](=O)[O-])ccc1N1CCOCC1
2.3%	0.0	4.1	7.5	-0.5	?	Cc1cccc(N2CCN(C(=O)CCc3nc4ccccc4c(=O)[nH]3)CC2)c1C
6.2%	-2.8	-4.9	3.7	-1.6	-47.5%[inhibitor]	NCCC(=O)N1c2ccccc2Sc2ccccc21
?	4.8	-19.1	-13.4	?	-1.2%	C/C(=C\C(=O)c1cccnc1)Nc1ccc(O)cc1
-7.9%	5.9	7.5	4.7	-3.2	9.2%	Cc1cccc(Cn2nc(C(C)(C)C)cc2C(=O)N2CCOCC2)c1
8.2%	-2.5	-3.8	9.2	-1.0	-6.9%[15.4 µM]	NC(=O)C1CCN(C(=O)CC2(CC(=O)O)CCCC2)CC1
.	-6.1	0.8	7.7	6.1	-23.2%	CC1=C(C(=O)N(C)C)CC(CC(=O)NC2CCCC2)C(=O)N1CCCN1CCCC1=O (stereo not drawn)
12.3%	-1.6	3.9	4.4	-1.6	4.9%	O=C(O)C1CCC(C(=O)O)SS1 (stereo not drawn)
17.1%	-0.9	-6.4	0.3	9.4	-9.6%[15.4 µM]	CCOc1ccc(Cl)cc1S(=O)(=O)N1CCC(C(=O)NC2CC2)CC1
-4.4%	-4.5	-5.4	5.5	-11.7	15.1%	COc1ccc(S(=O)(=O)N2CCCCC2)cc1NC(=O)CN1C(=O)NC(C)(C2CC2)C1=O (stereo not drawn)
-20.1%	-1.7	6.5	2.8	-7.5	16.5%	CCOC(=O)c1ccccc1NC(=O)COC(=O)C1CC(=O)N(c2ccc3c(c2)OCCO3)C1 (stereo not drawn)
20.7%	-0.4	-10.9	-18.4	-32.2	-7.1%	C=CCNc1nc(NCc2ccccc2)c(C#N)c2c1CN(C)CC2
0.9%	0.2	0.9	-0.9	-1.0	4.2%[15.4 µM]	COc1ccccc1OCCn1ccnc1
-4.9%	-1.2	3.4	5.8	-2.4	8.5%	COc1ccc(C2C(C(=O)NCc3cccnc3)c3ccccc3C(=O)N2C)cc1OC (stereo not drawn)
1.5%	-6.5	.	6.0	-37.3	13.6%	Nc1nc(N2CCN(c3ccccn3)CC2)nc2ccccc12
6.7%	1.8	.	2.3	6.0	10.3%	Cc1cc(C)c2c(CN3CCOCC3)cc(=O)oc2c1
-9.4%	3.4	.	-2.4	-4.8	43.3%[15.4 µM]	CC(=NCCCn1ccnc1)c1c(C)[nH]n(-c2ccc([N+](=O)[O-])cc2)c1=O
5.6%	-2.6	2.9	5.7	0.4	-22.9%	CC1CCCCC1NC(=O)C1CCN(S(=O)(=O)c2cccc3nonc23)CC1 (stereo not drawn)
